Source: PubChem BioAssay
VDR inhibitor = vitamin D3 receptor (human) inhibition; VDR-SRC2-3 peptide fluorescence polarization, 2 h; Potency, µM, inactives show max response, negative = inhibition, most hits filed as inhibitors; hit rate 0.93% among 400,000; AID 504847; active means well fitted inhibition curve with a large enough effect; inconclusive means small, poorly fitted or top-dose-only effect, or another doubt; inactive means no such curve, though single readings can be large or run the other way; further: series mostly up to about 120 µM
Target sequence (P11473 whole entry, looked up): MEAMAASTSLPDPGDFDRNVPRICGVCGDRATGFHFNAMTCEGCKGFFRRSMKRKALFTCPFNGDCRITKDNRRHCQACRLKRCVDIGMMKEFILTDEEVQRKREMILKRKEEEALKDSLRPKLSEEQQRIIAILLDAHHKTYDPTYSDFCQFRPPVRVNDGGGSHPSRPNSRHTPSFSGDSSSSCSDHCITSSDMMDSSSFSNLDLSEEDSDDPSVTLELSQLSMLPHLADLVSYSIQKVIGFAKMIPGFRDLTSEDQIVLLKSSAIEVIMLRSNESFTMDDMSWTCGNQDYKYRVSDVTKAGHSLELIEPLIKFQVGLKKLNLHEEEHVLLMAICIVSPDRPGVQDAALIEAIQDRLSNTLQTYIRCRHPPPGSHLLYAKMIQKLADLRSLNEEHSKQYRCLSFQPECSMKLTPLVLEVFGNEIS
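Inhibition of the VDR/SRC2-3 peptide interaction is quantified by fluorescence polarization. Compounds (23 nl, pintool) incubate with the reagents for 2 hours at ambient room temperature.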
An asterisk follows results filed as active; ? = inconclusive; & = joins results of further samples. On the % scale 0 is the no-effect control and ±100 the full control effect; potency means the concentration at half of the fitted maximal effect. An excerpt. The share of hits here may be higher or lower than overall.

Structure	VDR inhibitor
CCOC(=O)CSc1nc2ccccc2n1CC(=O)N(C(C)C)C(C)C	12%
CCCCn1c(SCC(=O)N2CCCCC2C)nc2cc(S(N)(=O)=O)ccc21 (stereo not drawn)	-4%
CSc1ccccc1NC(=O)c1cnc2scc(C)n2c1=O	-1%
CN1CCN(CCOCCOc2c(Cl)cc(Cl)cc2Cl)CC1	3%
O=S(=O)(Nc1ccc(-c2ccc(N3CCCC3)nn2)cc1)c1ccc(C(F)(F)F)cc1	0%
COc1ccc2cnnc(SCC(=O)Nc3ccc(C(C)=O)cc3)c2c1OC	-9%
CCC1CCCCN1C(=O)Cn1c(=O)n(-c2ccccc2C(F)(F)F)c(=O)c2c(C)c(C(=O)N(C)C)sc21 (stereo not drawn)	5%
CC(=O)Nc1cccc(NS(=O)(=O)c2cc3c4c(c2)CCN4C(=O)CC3)c1	-14%
CCCc1cc(=O)oc2cc(OCC(=O)N3C[C@H]4C[C@@H](C3)c3cccc(=O)n3C4)c(Cl)cc12	-7%
O=C(NNC(=S)NC(=O)C12CC3CC(CC(C3)C1)C2)c1ccncc1	-5%
CCCCN(CCCC)CCCNC(=O)CN1C(=O)COc2ccc(S(=O)(=O)N3CCC(C)CC3)cc21	-1%
Nc1nnc(CSCc2cccc(Br)c2)s1	27%
COC(=O)c1cc(OC)c(OC)cc1NC(=O)C(C)Sc1ccc(C)cc1 (stereo not drawn)	-9%
O=C(Nc1ccc2ccccc2c1)c1cccnc1	11%
O=C(CSCc1ccccn1)Nc1ccccc1	-12%
CCOc1ccccc1NC(=O)CSc1nc2cc(OC)c(OC)cc2c2nc(CCn3c(C)nc4ccccc43)nn12	2%
S=C(NCCCN1CCOCC1)Nc1cccc(Cl)c1	-6%
O=C1NC(=Nc2cccnc2)S/C1=C/c1ccc(F)cc1	2%
COc1ccc(C(=O)Nc2ccc(Cl)cc2F)cc1S(=O)(=O)N1CCCC1	3%
Cc1cc(C)c(COc2ccc(/C=N/n3c(C)n[nH]c3=S)cc2)c(C)c1	-3%
O=C(C1CCCC1)N1CCN(S(=O)(=O)c2ccc(F)cc2)CC1	1%
CCCCn1c(N)c(N(CC)C(=O)c2ccc(C)cc2)c(=O)[nH]c1=O	-7%
O=S1(=O)c2ccc(Br)cc2N2CCC[C@@H]2CN1Cc1ccccc1	-23%
CCOc1ccccc1NC(=O)Cn1c(=O)n(Cc2ccc(C(=O)NCCCOC)cc2)c(=O)c2ccccc21	-7%
Cc1[nH]n(-c2cccc3ccccc23)c(=O)c1/C=N/c1sc2c(c1C#N)CCC2	-3%
Cc1nc(C)c(C(=O)OCC(=O)N(C)c2ccccc2)s1	7%
COc1ccc(-c2cc(C(=O)NCC3CCCO3)on2)cc1OC (stereo not drawn)	8%
COc1ccc(N=Cc2nc(-c3ccccc3)oc2OC(=O)c2ccccc2)cc1	40µM*
CC(C)CN(C(=O)CN1C(=O)C2CCCCC2C1=O)c1c(N)n(Cc2ccccc2)c(=O)[nH]c1=O (stereo not drawn)	-16%
Cn1c(=O)c(=O)n(C)c2cc(S(=O)(=O)NCc3ccc(Cl)cc3)ccc21	?
COc1ccccc1NC(=O)Cc1noc(CSc2nnc(N)s2)n1	3%
C=CCn1c(O)c(N=NC(=O)OCC)c2ccccc21	-3%
O=C(O)CSc1cc(NS(=O)(=O)c2ccc(Br)cc2)c2ccccc2c1O	16µM*
COc1ccc(-c2noc(=O)n2Cc2ccc(F)cc2Cl)cc1	-17%
COc1ccc(NC(=O)c2oc3ccccc3c2NC(=O)c2cc3ccccc3o2)cc1	-14%
COc1cccc(OCC(=O)NNC(=O)c2ccc3ccccc3c2)c1	-3%
O=C(Nc1ccc(Cl)cc1C(F)(F)F)C(Sc1cccc[n+]1[O-])c1ccccc1 (stereo not drawn)	4%
O=C(COC(=O)c1cc(S(=O)(=O)N2CCOCC2)ccc1Cl)NCc1ccc2c(c1)OCO2	-3%
O=C(NCc1ccccc1)c1cc2ccccc2o1	4%&-19%
OCC#CCSc1nnc(-c2ccc(Br)cc2)o1	2%

Continued; it opens with the 6 that closed the last part.
Structure	VDR inhibitor
COc1ccc(NC(=O)c2oc3ccccc3c2NC(=O)c2cc3ccccc3o2)cc1	-14%
COc1cccc(OCC(=O)NNC(=O)c2ccc3ccccc3c2)c1	-3%
O=C(Nc1ccc(Cl)cc1C(F)(F)F)C(Sc1cccc[n+]1[O-])c1ccccc1 (stereo not drawn)	4%
O=C(COC(=O)c1cc(S(=O)(=O)N2CCOCC2)ccc1Cl)NCc1ccc2c(c1)OCO2	-3%
O=C(NCc1ccccc1)c1cc2ccccc2o1	4%&-19%
OCC#CCSc1nnc(-c2ccc(Br)cc2)o1	2%
Cc1cc(C)cc(N2C(=O)CCSC23C(=O)N(Cc2ccccc2)c2ccccc23)c1 (stereo not drawn)	-6%
COc1ccc(CC(=O)N2N=C(C)CC2(O)C(F)(F)F)cc1 (stereo not drawn)	-9%
COc1ccc(CCNC(=O)C2CCN(C(=O)c3ccc(OC)c(OC)c3)CC2)cc1	-15%
Cc1cc(/C=N/NC(=O)c2ccncc2)c(C)n1-c1ccccc1	14%
Cc1nnc(Sc2c(N)n(C)c(=O)[nH]c2=O)s1	7%
CC1CCN(C(=O)CSc2nc(C3CC3)nc3ccccc23)CC1	-12%
CC(C)(C)Nc1nc(Cl)nc(NC2CCCCC2)n1	-11%
COc1ccc(-c2c3c(=O)n(C)c(=O)n(C)c3c3c(C)nc4ccccc4n23)cc1	-19%
CCOC(=O)Cn1nc(Cc2ccccc2)c2ccccc2c1=O	3%
Nc1nc2c(s1)C(=O)CC(c1ccccc1)C2 (stereo not drawn)	-3%
Cc1ccc(CNC(=O)CCNC(=O)Cn2ccc3ccccc3c2=O)o1	1%
O=C(Cn1nc(-c2ccccc2)c2ccccc2c1=O)NN1CCOCC1	1%
CN(c1ccccc1)S(=O)(=O)c1cc(C(=O)NCCCn2ccnc2)ccc1Cl	-17%
O=C(NCc1ccccc1F)c1ccc(CN2CC(=O)N3CCCCC3C2=O)cc1 (stereo not drawn)	9%
CCOC(=O)C1CCCN(C(=O)c2sc3nc(C)nc(N(CC)CC)c3c2C)C1 (stereo not drawn)	0%
CC(CN1C(C)CCCC1C)OC(=O)c1cccc(Br)c1 (stereo not drawn)	-12%
CC1CCN(S(=O)(=O)c2ccc(S(=O)(=O)N3CCC4(CC3)OCCO4)cc2)CC1	9%
O=C(CCc1c[nH]c2ccccc12)N1CCN(S(=O)(=O)c2ccccc2)CC1	4%
COc1ccc(N(C(=O)c2cc(OC)c(OC)c(OC)c2)S(=O)(=O)c2ccc(C)cc2)cc1	16%
COc1ccc(N2CCN(CCNC(=O)c3c(C)cc(=O)oc3C)CC2)cc1	2%

Printed as active in VDR inhibitor, among the entries above:
Structure	VDR inhibitor
COc1ccc(N=Cc2nc(-c3ccccc3)oc2OC(=O)c2ccccc2)cc1	40µM*
O=C(O)CSc1cc(NS(=O)(=O)c2ccc(Br)cc2)c2ccccc2c1O	16µM*

Going on with the list:
smiles	VDR inhibitor
Cc1c(/C=N\NC(=O)c2cc3ccccc3o2)c2ccccc2n1C	-12%
O=C(NCCN1CCCCCC1)C1CCCN1S(=O)(=O)c1cccc2nsnc12 (stereo not drawn)	2%
CCCOC(=O)c1ccc(-c2ccc(C=O)o2)cc1	-24%
CC(C)(C)C1CCC(C(=O)NCC(c2cccs2)N2CCOCC2)CC1 (stereo not drawn)	-14%
CN(C)c1c(F)cc(C(=O)NCc2ccccc2)cc1F	4%
C[N+]12CCCCC1[C@@H](CO)CCC2 (stereo partly drawn)	0%
CCN(CC)C(=O)CSc1nnc([C@@H](NC(=O)OC(C)(C)C)C(C)C)o1	11%
Cc1cc(C)c2c(=O)[nH]n(C3CC(C)N(C)CC3C)c2n1 (stereo not drawn)	-9%
COCCN(CC(=O)Nc1cccc(C)c1C)C(=O)Cc1ccsc1	5%
Cc1ccc(-n2ncc3c2CC(C)(C)CC3NC(=O)c2ccc[n+]([O-])c2)cc1 (stereo not drawn)	-14%
COc1cccc(NC(=O)c2c(F)cccc2F)c1	-8%
COCCNc1nc(C)cc(-c2cc(C(=O)NC3CCCC3)on2)n1	-12%
COC(=O)NC1c2ccccc2Oc2ccc(C)cc21 (stereo not drawn)	9%
C=CCSc1nc2c(cnn2-c2ccc(C)c(C)c2)c(=O)[nH]1	2%
CN(Cc1c(C(=O)N2CCCCCCC2)nc2ccc(Cl)cn12)C1CCOC1 (stereo not drawn)	?
CCn1c(=O)c2cc(C(=O)N3CCN(C)CC3)sc2c2ccccc21	-1%
Cn1cnnc1SCC(=O)Nc1ccccc1	-10%
CC(CN1CCOCC1)OC(=O)c1cccs1 (stereo not drawn)	-8%
COc1ccc(C2=C(N3CCN(c4cccc(C)c4C)CC3)c3ccccc3C2=O)cc1	-14%
CC(=O)Nc1c(C(=O)N2CCOCC2)sc2nc3c(cc12)COC(C)(C)C3	3%
COC(=O)c1ccc(S(=O)(=O)NCc2ccc(OC)cc2)n1C	-4%
Cc1ccc([C@@H]2CC=C(C(=O)O)[C@H](c3ccc(F)cc3)N2S(=O)(=O)c2ccc(C)cc2)cc1	-22%
Cc1cccc(C(=O)N[C@H](C(=O)NCc2cccs2)C(C)C)c1	-11%
COc1cccc(CNS(=O)(=O)c2cc3c(cc2Cl)NC(=O)CO3)c1	-16%
O=C(O)C1CCCCC1C(=O)Nc1ccc(OCc2ccccc2)cc1 (stereo not drawn)	8%

Given with each value named: four of the compounds above.
CN(Cc1c(C(=O)N2CCCCCCC2)nc2ccc(Cl)cn12)C1CCOC1 (stereo not drawn)
- VDR inhibitor: ?
Cc1ccc(-n2ncc3c2CC(C)(C)CC3NC(=O)c2ccc[n+]([O-])c2)cc1 (stereo not drawn)
- VDR inhibitor: -14%
COCCNc1nc(C)cc(-c2cc(C(=O)NC3CCCC3)on2)n1
- VDR inhibitor: -12%
COC(=O)c1ccc(S(=O)(=O)NCc2ccc(OC)cc2)n1C
- VDR inhibitor: -4%

(more compounds)
smiles	VDR inhibitor
O=C(COC(=O)c1ccc(O)cc1)Nc1cc(C(F)(F)F)ccc1N1CCOCC1	-19%
COc1ccc(C2CC2/C(=N/OC(=O)c2cccs2)c2ccccc2)cc1 (stereo not drawn)	16%
Cc1ccc(N2C(=O)N(CC(=O)Nc3ccc(C)c(C)c3[N+](=O)[O-])C(=O)C2C)cc1 (stereo not drawn)	?
Cc1csc(NC(=O)CSc2nnc(C)s2)n1	8%
CC1CN(C(=S)Nc2ccccc2)N(c2ccccc2)C1 (stereo not drawn)	11%
Cc1ccc(N2C(S)=C(C#N)C(=O)NC23CCCCC3)cc1	32µM*
O=C(NCc1cccs1)C1CCCN(S(=O)(=O)c2ccc3c(c2)OCO3)C1 (stereo not drawn)	-1%
COC(=O)CSc1nnc(CNc2ccc(F)cc2)o1	12%
CC(C)(CNC(=O)c1cccc(S(=O)(=O)Nc2ccc(SC(F)F)cc2)c1)N1CCOCC1	-24%
CS(=O)(=O)N1CCC2(CC1)CN(C(c1ccccc1)c1ccccc1)C2	-2%
Cc1n[nH]c(C)c1CS(=O)(=O)c1ccccc1	16%
CCSc1nnc(NC(=O)c2ccc(F)c(S(=O)(=O)N3CCOCC3)c2)s1	-2%
COc1cc(/C(C)=N/N2CCOCC2)cc(OC)c1OC	-7%
Cc1cc(N/C=C/C(=O)c2ccc(Br)cc2)no1	-4%
COc1cccc(C(=O)NC(=S)Nc2ccc(N(C)C)cc2)c1	-10%
CC(=O)Nc1cccc(OCc2ccc(F)cc2)c1	8%
COc1ccc(/C=N/n2c(C)nc3ccccc3c2=O)cc1OC	-3%
CC(C)c1ccc(NC(=O)N2CCN(S(=O)(=O)c3ccccc3)CC2)cc1	-10%
O=C(Cc1ccc(Cl)cc1)Nc1ncccn1	9%
Cc1cccc(N(C(=O)CCC(=O)Nc2cc(C)on2)C(C(=O)NC2CCCC2)c2ccncc2)c1 (stereo not drawn)	-20%
CN(c1cccc2cccnc12)S(=O)(=O)c1ccccc1	9%
CCc1cc2c(=O)n(-c3ccccc3)c(=S)[nH]c2s1	-26%
COc1ccc(-n2c(SCc3nnc(-c4ccccc4)o3)nnc2-c2ccccc2)cc1	15%
CCN(CCCNC(=O)c1cc2cc3ccc(OC)cc3nc2s1)c1ccccc1	-4%
O=C1CN(C(=O)C2CCCCC2)C(c2ccccc2)c2cc(F)ccc2N1 (stereo not drawn)	-9%
O=C(Nc1ccc(F)cc1)N1CCN(c2ccccc2F)CC1	-6%
CCN(CC)S(=O)(=O)c1cc([N+](=O)[O-])ccc1NNC(=O)Nc1ccc(Cl)c(Cl)c1	1%
OCCN(Cc1ccccc1)Cc1ccc(F)c(F)c1	12%
NS(=O)(=O)c1ccc2ccccc2c1	2%
CCN(CC(=O)NCc1ccc(Cl)cc1)C(=O)CN1C(=O)NC(CC)(c2ccccc2)C1=O (stereo not drawn)	-6%
Cc1ccc(SCC(=O)NCC2CCCO2)cc1 (stereo not drawn)	0%
CC(C)(C)NC(=O)COc1ccc(-c2ccccc2)cc1	-7%
O=C(COc1ccccc1F)N1N=C(c2cccs2)CC1c1ccco1 (stereo not drawn)	-18%
COc1ccc(-c2cc3c(=O)n(CC(=O)Nc4cccc(Cl)c4)ncn3n2)cc1	-11%
O=C(COc1ccc(Cl)cc1Cl)NC(=O)NC1CCCC1	4%
